Assay outcomes deposited in PubChem BioAssay by several laboratories.
PrP 5UTR inh = inhibition of PrP 5' UTR reporter expression; cell-based PrP 5' UTR mRNA reporter, plate reader; 0.35% of 340,000 active; inhibition, % (no concentration beside the values);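 active = every replicate at 50% or more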;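 note: 0 = median of the neutral control wells; tested in H4 reporter cells; numbers are from one replicate; inactives centre near -14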
BJeLR viability = kills HRASV12-expressing BJeLR cells. BJeLR (HRASV12) viability, CellTiter-Glo ATP luminescence, 48 h; reference of the scale not given here. inhibition, % (concentration not given with the values). 0.17% of 300,000 active. AID 1554;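 active = replicate mean above 50%; inconclusive = above 50% but judged a plate artefact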;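 note: 50 nL library stock added to about 25 µL; numbers are from one replicate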
Mtb hypoxia inh = inhibitors of hypoxia-regulated fluorescent reporter in Mycobacterium tuberculosis. fluorescence inhibition, % (test concentration not listed). AID 1159583. 0.1% of 300,000 active. M. tuberculosis hypoxia-regulated fluorescent reporter, fluorescence;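 active = 35 to 45% if threefold the growth effect, above 45% if 1.5-fold the growth effect; inactive = the rest, general growth blockers included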;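 note: wells of about 50 µL received 100 nL stock; 0% = vehicle wells and 100% = reference inhibitor wells; whole bacteria with a GFP reporter of the hypoxia response; strong numbers were not always called active; many hits fall short of the cut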
ugtP null kill = growth inhibition of S. aureus ugtP deletion strain. 0.54% of 330,000 active. AID 1259309. growth inhibition, % (no concentration beside the values). S. aureus RN4220 ugtP deletion, OD600 growth, 16 h; some inactives read as strong as hits;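 active = z-score under -3 and OD600 up to 0.15 on both plates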;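 note: plate controls were untreated wells for no effect and antibiotic for full effect; wells of about 80 µL received 100 nL stock; the first replicate is given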
Sa RN4220 lethal = S. aureus RN4220 growth inhibition; inhibition, % (test concentration not listed); OD600, 16 h; 0.33% of 330,000 active; AID 1259311;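 active = z-score of -3 or lower and OD600 up to 0.18 on both plates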;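 note: plate controls were untreated cells for no effect and reference antibiotic for full effect; stock transfer was 100 nL into about 80 µL; one replicate is shown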
Autofluor counter = compound fluorescence in toxin protease inhibitor counterscreen. compound autofluorescence counterscreen, microsphere flow cytometry; active compounds read high. fluorescence intensity (no concentration beside the values). 3.1% of 360,000 active. AID 624483;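 active = at least 3 SD above the mean of all compounds, about 16000 in these data; inconclusive = too few beads counted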;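 note: 100 nL of 1 mM stock went into each well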
Mtb hypoxia inh growth = also measured in Mtb hypoxia inh; calls as there; growth inhibition, %; measured here: M. tuberculosis growth (absorbance);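 0% = vehicle and 100% = reference antibiotic; read after six days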
Active calls of the source: *; ? = inconclusive; . = no result given.

The line under a structure holds: ugtP null kill, Sa RN4220 lethal, Mtb hypoxia inh growth, Autofluor counter, Mtb hypoxia inh, BJeLR viability, PrP 5UTR inh
[1] CCCCN(C)CCCNC(=O)c1ccc2c(c1)N(CC)C(=O)c1ccccc1S2=O (stereo not given)
 : 7, 2.5, 3, 4270, 17, -5, -6
[2] Cc1nc2ccc(S(=O)(=O)NC(C(=O)NCc3ccc4c(c3)OCO4)C(C)C)cc2s1 (stereo not given)
 : 6, 1.5, ., 5527, ., 7, -16
[3] O=C(COC(=O)Cc1c(F)cccc1Cl)NCc1ccc2c(c1)OCO2
 : 3, 1.7, 9, 3829, 5, ., -16
[4] O=C(Nc1ccc(S(=O)(=O)Nc2cnc3ccccc3n2)cc1)c1ccc(Cl)cc1Cl
 : -1, 9.4, 6, 3981, 0, -5, .
[5] COc1ccc(C=Cc2c(-c3ccc(OC)cc3)oc(=O)c3cc(OC)c(OC)cc23)cc1
 : -5, 0.6, 30, ., 7, ., .
[6] CN1c2ccccc2N(C)C1c1c(O)ccc2ccccc12
 : 0, 2.3, 2, 11094, 4, 9, -3
[7] COCCNC(=O)c1onc(CSc2ccc(Cl)cc2)c1C(=O)O
 : 2, 7.6, 3, 3644, -2, 0, -5
[8] Cc1cccc(C)c1Nc1nnc(SCc2cn3cccc(C)c3n2)s1
 : -3, 7.9, 5, 2251, 3, ., -10
[9] NC(N)=Nc1nc(C2COc3ccccc3O2)cs1 (stereo not given)
 : -3, 2.7, 6, 2544, -2, 0, -112
[10] CCCC1(C(=O)OC)NC(c2cccc(F)c2)C2C(=O)N(CC)C(=O)C21 (stereo not given)
 : 1, 0.4, 5, 8998, 9, 2, -19
[11] COCCn1c(SCC(=O)Nc2ccc(NC(=O)c3ccco3)c(OC)c2)nc2ccccc2c1=O
 : -6, 3.2, 0, 8978, -1, -1, 11
[12] COCCn1c(N)c(Sc2ccc([N+](=O)[O-])cc2)c(=O)[nH]c1=O
 : 18, 7.3, 14, 3502, 1, 2, -23
[13] CCN1CCN(c2nc3c(c(=O)[nH]2)CCC3)CC1
 : 3, -1.5, 11, 4426, -3, -15, -9
[14] COC(=O)c1sccc1NC(=O)c1ccc(Cl)s1
 : -4, 14, 8, 11283, 2, 2, -38
[15] Cc1cccc(C(=O)NNC(=O)C2CCCO2)c1 (stereo not given)
 : -1, -3.4, -1, ?, 4, -12, -14
[16] O=C(CCC(=O)Nc1ccc(F)cc1)NN=Cc1cccs1
 : 0, 3.6, 7, ., -1, ., .
[17] O=C(CSc1nnc(CNc2ccc(F)cc2)o1)N1CCN(C(=O)c2ccco2)CC1
 : 4, 3.4, 7, 7623, 7, 5, -20
[18] Cc1c(C(=O)NC2CCCc3ccccc32)oc2ccc(S(=O)(=O)N3CCCC3)cc12 (stereo not given)
 : 12, 4.5, 2, 10221, 5, -7, -5
[19] Cc1ccc(C(=O)NN=C2CCCC2)cc1C
 : 9, 2.7, 3, 5748, 15, -2, -28
[20] O=C(CSc1n[nH]c(=O)n1C1CC1)Nc1cc(Cl)ccc1Oc1ccccc1
 : -8, 2.2, 4, 9141, 0, 5, 1

More compounds follow.
The line under a structure holds: ugtP null kill, Sa RN4220 lethal, Mtb hypoxia inh growth, Autofluor counter, Mtb hypoxia inh, BJeLR viability, PrP 5UTR inh
[21] Cc1cccc(OCC(=O)NC(Cc2c[nH]c3ccccc23)C(=O)O)c1C (stereo not given)
 : 4, 7.5, 10, 2319, 2, 4, -3
[22] CCn1c(=S)[nH]c2c(c1=O)C(C)(C)Cc1ccccc1-2
 : -6, 0.9, 0, 3916, -2, 1, -15
[23] COc1ccc(OC)c(/C=N/NC(=O)C(=O)N/N=C/c2cc(OC)ccc2OC)c1
 : ., ., ., 4053, ., -2, -1
[24] Cn1nccc1NC(=O)Nc1cccc(Cl)c1
 : -6, 0.5, -4, ., -1, -7, -77
[25] O=C(c1cc(S(=O)(=O)NCc2ccco2)ccc1Br)N1CCOCC1
 : 5, 3.1, 8, 6902, 3, ., 79*
[26] Cc1ccc(C(=O)C(C)OC(=O)CNS(=O)(=O)c2ccc(C)cc2)cc1 (stereo not given)
 : -6, -3.5, -4, 3684, 0, ., -28
[27] O=C(CC1Nc2ccccc2NC1=O)NCCCN1CCCCCC1 (stereo not given)
 : -2, -15, 3, 3487, 1, 7, -11
[28] O=C(COc1ccc(S(=O)(=O)NC2CCCCC2)cc1)NCc1cccnc1
 : 5, 1.2, 13, 9903, 10, 0, -32
[29] CN(Cc1c(F)cccc1Cl)C(=O)C1CC(=O)N(CCc2ccccc2)C1 (stereo not given)
 : 2, 7.6, 9, 3890, -5, -8, -17
[30] CC(C)N(Cc1ccccc1)C(=O)CN1C(=O)NC2(CCCc3ccccc32)C1=O (stereo not given)
 : -2, 1.6, -6, 4195, -2, 1, -5
[31] Cc1ccc(S(=O)(=O)Nc2nc3ccccc3nc2Nc2cccc(S(=O)(=O)N3CCCC3)c2)cc1
 : -9, 0.6, 1, ?, 2, 0, -3
[32] Cc1ccc(C=NNC(=O)c2nnn(-c3nonc3N)c2CSc2ccccc2)s1
 : 13, 7.0, -5, ., 1, ., .
[33] COc1ccc(NC(=O)CN(c2cccc(C(F)(F)F)c2)S(C)(=O)=O)cc1OC
 : 1, 4.7, 7, 20812*, 10, -4, -22
[34] CC12CCC3C(CCC4CC(=O)OCC43C)C1CCC2O (stereo not given)
 : -2, 2.8, 4, 3953, 3, ., -12
[35] CC1S/C(=N/N=C2CCC(C(C)(C)C)CC2)NC1=O (stereo not given)
 : ., ., ., 8183, ., 0, -18
[36] Clc1ccc2c(c1)C1OCCC1C(c1ccco1)N2 (stereo not given)
 : 4, 6.3, ., 4565, ., -3, -36
[37] CC(C)CNC(=O)NC(=O)COC(=O)COc1ccc(Cl)cc1Cl
 : 12, 2.6, 3, 5828, 12, 5, -20
[38] COc1ccc(OC)c(NC(=O)CCNS(=O)(=O)c2cccs2)c1
 : -1, 3.8, 2, 8697, -3, 1, -12
[39] O=[N+]([O-])c1cccc(CNC2CCCCCC2)c1
 : 6, 7.7, 8, 5281, -8, 6, -8
[40] CC(C)(C)n1ncc2c(=O)n(Cc3ccc(Cl)cc3)cnc21
 : 6, 2.4, 5, 4471, 22, 4, -9

The listing continues.
The line under a structure holds: ugtP null kill, Sa RN4220 lethal, Mtb hypoxia inh growth, Autofluor counter, Mtb hypoxia inh, BJeLR viability, PrP 5UTR inh
[41] O=C(NCc1cccs1)C(NS(=O)(=O)c1cccc2nsnc12)c1ccccc1 (stereo not given)
 : -15, -2.0, -5, 9961, 0, -7, -23
[42] CCCCN(C(=O)CSc1nnc(-c2ccccc2)n1C)c1c(N)n(Cc2ccccc2)c(=O)[nH]c1=O
 : 7, 3.2, -9, 2000, -3, -2, -6
[43] COc1ccc2sc3ccccc3c(=O)c2c1OC
 : 2, -14, 16, ?, 17, 2, -35
[44] Cc1cccc(C)c1OCCCCc1c(C)n[nH]c1C
 : -12, 5.1, 11, 22821*, -1, 4, -8
[45] CCc1c(C)nc2c(C#N)c[nH]n2c1=O
 : -8, 7.3, 6, 8422, -3, -4, -22
[46] CCN1CCc2c(sc(NC(=O)c3ccc(S(=O)(=O)N(C)c4ccccc4)cc3)c2C(=O)NC)C1
 : -4, 5.2, 21, 8771, 4, -6, -2
[47] CC(=O)NC1=NN(c2ccccc2)C(=O)C1
 : -3, 1.3, 1, 9753, 1, 6, -24
[48] Cc1cccc(C(=O)N[C@H](C(=O)Nc2cc(S(=O)(=O)N3CCCCC3)ccc2C)C(C)C)c1
 : -3, 13, 3, 2058, 3, -3, -25
[49] O=C(O)/C=C\C(=O)Nc1ccc(Oc2ccccc2)cc1
 : 2, 1.9, 8, 3534, 12, 4, -14
[50] Cc1cccc2c(C(=O)O)c3c(nc12)CCCCC3
 : 2, 3.7, ., 2441, ., 7, -15
[51] CCn1c(C)nc2cc(NC(=O)Nc3cccc(C(C)=O)c3)ccc21
 : 6, 0.4, 6, 3518, -1, -6, -19
[52] CCN(CC)C(=O)c1ccccc1NS(=O)(=O)c1ccc(C)cc1
 : 1, 2.3, 6, 9829, 7, -17, -15
[53] Cc1nnc(NC(=O)CCCOc2ccccc2)s1
 : 0, 3.0, -2, 3258, -4, 15, -26
[54] COCCNC(=O)CCC1CCN(Cc2cccc(Oc3ccccc3)c2)CC1
 : 14, 6.8, 3, 3254, 10, -7, -18
[55] NS(=O)(=O)c1ccc(NC(=O)/C=C/c2cccc(Cl)c2)cc1
 : 9, 4.8, 9, 4564, 12, -4, -35
[56] Cc1cccc(NC(=O)CON=Cc2ccc3c(c2)OCO3)c1
 : 1, -1.7, 1, ., 4, ., .
[57] COc1ccc(-n2c(COc3cccc4ccccc34)nnc2SC(C)C(=O)O)cc1 (stereo not given)
 : -8, 2.3, 6, 3541, -4, 2, -19
[58] COc1ccc(CCNC(=O)C2CCN(C(=O)c3ccc(F)cc3)CC2)cc1OC
 : 11, 3.1, 11, 3333, 18, -5, -7
[59] Cc1ccc(-c2nn3c(C)nnc3s2)cc1NC(=O)c1cccs1
 : 3, 2.2, 2, 10616, 7, 5, -22
[60] CCCC[N+]12CCC(CC1)C(=C(c1ccccc1)c1ccccc1)C2
 : 4, -2.4, 6, 2506, -3, 7, -34

Continuation.
The line under a structure holds: ugtP null kill, Sa RN4220 lethal, Mtb hypoxia inh growth, Autofluor counter, Mtb hypoxia inh, BJeLR viability, PrP 5UTR inh
[61] CC(C)(CC(=O)O)CC(=O)NNc1ncccc1C#N
 : 4, 2.1, -5, 3689, -3, -3, -9
[62] CC1=C(C(=O)Nc2ccccc2)C(c2ccco2)C(C#N)=C(SCC(=O)Nc2cccc(C)c2C)N1 (stereo not given)
 : 17, 3.0, 0, 7320, -1, -3, -6
[63] Cc1cc(NC(=O)CSc2nnc(-c3ccco3)n2N)no1
 : 3, 5.6, 3, ., 0, ., -2
[64] CCN(CC)S(=O)(=O)c1cc(NC(=O)c2ccccc2OCc2c(C)noc2C)ccc1C
 : 5, 2.3, 10, 3644, 14, ., -29
[65] COc1ccc(C(=O)N=c2sc3c(C)ccc(OC)c3n2C)cc1OC
 : 4, 3.0, -6, 3541, -12, 6, -129
[66] Cc1ccc2[nH]c(=O)c(N3CCOCC3)c(-c3ccccc3)c2c1
 : -2, 9.9, 7, 25661*, 9, 2, -12
[67] CCC(C)n1c(=O)c(C(=O)Nc2ccccc2S(N)(=O)=O)c(O)c2ccccc21 (stereo not given)
 : 76, 103*, ., 4531, ., -1, 6

Reprinted: nos. 66 to 67
The line under a structure holds: ugtP null kill, Sa RN4220 lethal, Mtb hypoxia inh growth, Autofluor counter, Mtb hypoxia inh, BJeLR viability, PrP 5UTR inh
[66] Cc1ccc2[nH]c(=O)c(N3CCOCC3)c(-c3ccccc3)c2c1
 : -2, 9.9, 7, 25661*, 9, 2, -12
[67] CCC(C)n1c(=O)c(C(=O)Nc2ccccc2S(N)(=O)=O)c(O)c2ccccc21 (stereo not given)
 : 76, 103*, ., 4531, ., -1, 6

Molecules above containing a furan ring, fused or not (seven):
The line under a structure holds: ugtP null kill, Sa RN4220 lethal, Mtb hypoxia inh growth, Autofluor counter, Mtb hypoxia inh, BJeLR viability, PrP 5UTR inh
[11] COCCn1c(SCC(=O)Nc2ccc(NC(=O)c3ccco3)c(OC)c2)nc2ccccc2c1=O
 : -6, 3.2, 0, 8978, -1, -1, 11
[17] O=C(CSc1nnc(CNc2ccc(F)cc2)o1)N1CCN(C(=O)c2ccco2)CC1
 : 4, 3.4, 7, 7623, 7, 5, -20
[18] Cc1c(C(=O)NC2CCCc3ccccc32)oc2ccc(S(=O)(=O)N3CCCC3)cc12 (stereo not given)
 : 12, 4.5, 2, 10221, 5, -7, -5
[25] O=C(c1cc(S(=O)(=O)NCc2ccco2)ccc1Br)N1CCOCC1
 : 5, 3.1, 8, 6902, 3, ., 79*
[36] Clc1ccc2c(c1)C1OCCC1C(c1ccco1)N2 (stereo not given)
 : 4, 6.3, ., 4565, ., -3, -36
[62] CC1=C(C(=O)Nc2ccccc2)C(c2ccco2)C(C#N)=C(SCC(=O)Nc2cccc(C)c2C)N1 (stereo not given)
 : 17, 3.0, 0, 7320, -1, -3, -6
[63] Cc1cc(NC(=O)CSc2nnc(-c3ccco3)n2N)no1
 : 3, 5.6, 3, ., 0, ., -2
